Measles inh – inhibitors of measles virus growth in infected cells | infected Vero cells, GFP fluorescence, 64 h; hits give low values | z-score (test concentration not listed) | hit rate 0.1% among 33,000 | AID 745;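 active means z-score under -3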;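 further: score is relative to mean and SD of the compound wells of a plate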
The depositor's hits bear a star.

Start of the listing, in advance (17 entries):
SMILES	Measles inh
Cc1cc(C)c(S(=O)(=O)Nc2cc3c4c(oc3c3ccccc23)CC(C)(C)CC4=O)cc1C	0.02
CCCc1oc2ccc(NS(=O)(=O)c3ccc(Cl)cc3)cc2c1C(=O)OCC	-1.08
NC(=O)CSc1nnc(-c2cccnc2)n1-c1ccccc1	0.17
CC(C)Cn1c(=O)c(C(=O)Nc2nc3ccc(F)cc3s2)c(O)c2ccccc21	0.92
O=C1c2cccc3cccc(c23)C(=O)N1c1cccc(O)c1	0
CC1=C(C(=O)OCCOc2ccccc2)C(c2ccc(Br)cc2)NC(=O)N1 (configuration not stated)	0.35
Cc1cccc(OCC(=O)Nc2ccc(Cl)cn2)c1	-0.56
COc1ccc(C2/C(=C(\O)c3ccccc3)C(=O)C(=O)N2CC(C)O)c(OC)c1 (configuration not stated)	-0.43
COc1ccc(CSc2nnnn2C)cc1[N+](=O)[O-]	0.76
CCOC(=O)c1ccc(Oc2cc(C)nc(SC)n2)cc1	0.42
COc1cccc(C2C(C(=O)OCCOc3ccccc3)=C(C)NC3=C2C(=O)CC(C)(C)C3)c1OC (configuration not stated)	0
CCOC(=O)CN(Cc1ccccc1)S(=O)(=O)c1cccc([N+](=O)[O-])c1	1.18
O=c1[nH]nc(SCc2ccc(F)cc2)c(=O)[nH]1	-0.31
O=C(c1cc2nc(-c3ccco3)cc(C(F)(F)Cl)n2n1)N1CCc2ccccc21	-0.32
CC1(C)NC(=O)N(CC(O)CN(c2ccccc2)c2ccccc2)C1=O (configuration not stated)	-0.14
COc1ccc(NS(=O)(=O)c2ccc3nc(-c4ccccc4)[nH]c3c2)cc1Cl	-0.5
CCOc1cc2[nH]c(=S)n(C3CCC(C)CC3)c(=O)c2cc1OCC (configuration not stated)	0.68

The list itself, previewed entries included:
SMILES	Measles inh
Cc1cc(C)c(S(=O)(=O)Nc2cc3c4c(oc3c3ccccc23)CC(C)(C)CC4=O)cc1C	0.02
CCCc1oc2ccc(NS(=O)(=O)c3ccc(Cl)cc3)cc2c1C(=O)OCC	-1.08
NC(=O)CSc1nnc(-c2cccnc2)n1-c1ccccc1	0.17
CC(C)Cn1c(=O)c(C(=O)Nc2nc3ccc(F)cc3s2)c(O)c2ccccc21	0.92
O=C1c2cccc3cccc(c23)C(=O)N1c1cccc(O)c1	0
CC1=C(C(=O)OCCOc2ccccc2)C(c2ccc(Br)cc2)NC(=O)N1 (configuration not stated)	0.35
Cc1cccc(OCC(=O)Nc2ccc(Cl)cn2)c1	-0.56
COc1ccc(C2/C(=C(\O)c3ccccc3)C(=O)C(=O)N2CC(C)O)c(OC)c1 (configuration not stated)	-0.43
COc1ccc(CSc2nnnn2C)cc1[N+](=O)[O-]	0.76
CCOC(=O)c1ccc(Oc2cc(C)nc(SC)n2)cc1	0.42
COc1cccc(C2C(C(=O)OCCOc3ccccc3)=C(C)NC3=C2C(=O)CC(C)(C)C3)c1OC (configuration not stated)	0
CCOC(=O)CN(Cc1ccccc1)S(=O)(=O)c1cccc([N+](=O)[O-])c1	1.18
O=c1[nH]nc(SCc2ccc(F)cc2)c(=O)[nH]1	-0.31
O=C(c1cc2nc(-c3ccco3)cc(C(F)(F)Cl)n2n1)N1CCc2ccccc21	-0.32
CC1(C)NC(=O)N(CC(O)CN(c2ccccc2)c2ccccc2)C1=O (configuration not stated)	-0.14
COc1ccc(NS(=O)(=O)c2ccc3nc(-c4ccccc4)[nH]c3c2)cc1Cl	-0.5
CCOc1cc2[nH]c(=S)n(C3CCC(C)CC3)c(=O)c2cc1OCC (configuration not stated)	0.68
CCc1cc(CC)c2c(=O)c3ccccc3sc2c1	-0.09
C=CCSc1nnc2c(n1)OC1(Nc3ccccc3-2)C(=O)Nc2ccc(Cl)cc21 (configuration not stated)	-1.36
O=C1C=C(c2c(O)ccc3ccccc23)c2ccccc2C1=O	-0.11
CCOC(=O)C1C(=O)C=C(c2ccco2)CC1c1ccc(C)cc1 (configuration not stated)	-0.9
Cn1c(=O)c2c(nc3n(CCO)c(-c4ccc(F)cc4)cn23)n(C)c1=O	0.62
Cc1nc(Nc2ccc(Br)cc2C)c2cc(C)sc2n1	0.49
COc1cc2ccccc2cc1C(=O)Nc1nc(-c2ccccc2OC)cs1	0.71
O=C(O)C1CSC(c2ccc(O)cc2)N1 (configuration not stated)	1.1
O=C(CCCn1c(=S)[nH]c2cc3c(cc2c1=O)OCO3)NCCCN1CCOCC1	-0.28
CN(CCO)C1=NS(=O)(=O)c2cc([N+](=O)[O-])ccc21	1.62
C=CCOc1ccc(C2C(C(=O)c3ccco3)=C(O)C(=O)N2Cc2cccnc2)cc1 (configuration not stated)	-1.35
Cc1sc2c(c1C)c(=O)n(-c1ccccc1)c(=O)n2CC(=O)C(C)(C)C	-0.17
CCN(CC)c1nc(-c2ccc(C(C)(C)C)cc2)nc2ccccc12	-0.1
COc1ccc(C(=O)Oc2ccc(C=Nc3cccc(Br)c3)cc2[N+](=O)[O-])cc1	0.84
O=C(Nc1cccnc1)NC1CCCCC1	-0.18
O=C(O)c1ccc2c(c1)C(=O)N(C(Cc1ccc(O)cc1)C(=O)O)C2=O (configuration not stated)	-0.55
Cc1cccc(NC(=O)c2sc(=S)n3c2[nH]c(=O)c2sccc23)c1C	0.66
Cc1ccc(N2C(=O)CSC2c2cccc(F)c2)cc1F (configuration not stated)	0.29
CC1=C(C(=O)OCC(C)C)C(c2ccc(Br)cc2)NC(=O)N1 (configuration not stated)	-0.8
CCc1nc2ccccc2n1CC(O)COCC1CC=CCC1 (configuration not stated)	0.17
O=C1c2ccccc2C(=O)N1Cc1nc2ccc(Br)cn2c1NC1CCCCC1	1.41
Cc1cccc(-n2cc(-c3ccc(Br)cc3)[nH]c2=O)c1	0.66
CCn1c(C(Cc2ccccc2)NC(=O)COC)nc2ccccc21 (configuration not stated)	0.5
O=C(CSc1nc2ccccc2c(=O)n1-c1ccccc1)c1ccc(F)cc1	0.96
C=CCn1c(SCC(=O)c2ccc3cc[nH]c3c2)nnc1-c1cccnc1	-0.32
N#Cc1ccc(-c2ccncc2)nc1SCC(=O)Nc1nc2ccccc2s1	1.2
CCOC(=O)C1=C(C)NC2=C(C(=O)C(C(=O)OC)C(C)C2)C1c1ccc(C)cc1 (configuration not stated)	-0.57
COc1ccc(CNC(=O)c2cc(S(=O)(=O)N3CCCCC3)ccc2F)cc1	0.37
COC(=O)c1ccc(NC(=O)CN2CCN(CC#N)CC2)cc1	-0.52
O=C(NC1CCCC1)c1cnc2n(c1=O)CCS2	-0.59
CC1CCCC(NC(=O)C2N(CCC3=CCCCC3)C(=O)C3C(C(=O)Nc4ccc(Cl)cc4)C4C=CC32O4)C1C (configuration not stated)	-0.42
CCCCOC(=O)CCc1c(C)[nH]c(=S)[nH]c1=O	-0.71
Cc1onc(-c2ccccc2Cl)c1C(=O)Nc1c(-c2ccc(F)cc2)nc2ccccn12	-0.04
COC(=O)C1=C(N)OC2=C(C(=O)CC(C)(C)C2)C1c1ccc(OC)cc1 (configuration not stated)	-0.91
O=C(CN(c1ccc(Cl)c(C(F)(F)F)c1)S(=O)(=O)c1ccccc1)N1CCc2ccccc2C1	-0.73
CCCOC(=O)c1cccc(NC(=O)c2c(OC)cccc2OC)c1	-1.46
CC1=C(C(=O)OCC(Cl)(Cl)Cl)C(c2cccc(Br)c2)NC(=O)N1 (configuration not stated)	-0.96
CCC(=O)N1c2ccc(S(=O)(=O)CCC(=O)Nc3cccc(CC)c3)cc2CC1C (configuration not stated)	0.63
COc1ccc(NC(=O)CC(C(=O)O)N2CCCCC2)cc1 (configuration not stated)	0.68
COc1cccc(C(=O)Oc2c(Sc3ccccc3[N+](=O)[O-])c(C)nn2C(C)(C)C)c1OC	-0.47
O=C1c2ccccc2-c2nc3ccncc3nc21	-0.18
COc1ccc(OC)c(-c2cc(C(=O)Nc3ccc(C)cc3)no2)c1	0.9
Cc1ccc(OCC(=O)Nc2ccc(S(=O)(=O)N3CCCC3)cc2)c(Br)c1	-0.63

The list continues:
SMILES	Measles inh
Cc1cc(C)cc(NS(C)(=O)=O)c1	0
Cc1ccc2nc(-c3ccc(Cl)cc3)cc(C(=O)N3CCOCC3)c2c1	-0.45
O=C(Nc1cccc2c1CCCC2)C1CCCN(S(=O)(=O)c2cccc3nonc23)C1 (configuration not stated)	0.05
O=C(N1CCN(c2ccc(F)cc2)CC1)C1(S(=O)(=O)c2ccc(Cl)cc2)CC1	-0.19
CC1=C(C(=O)Nc2ccc(C)cc2)C(c2ccc(C(C)C)cc2)NC(=O)N1 (configuration not stated)	-0.25
N#Cc1c2c(c(N3CCOCC3)n3c1nc1ccccc13)CCC2	0.65
CC(=O)N1CCCc2cc(S(=O)(=O)Nc3cc(C)cc(C)c3)ccc21	0.26
COc1ccc(C(=O)Nc2cc(C(=O)N3CCCCCC3)ccc2N2CC3CC(C2)c2cccc(=O)n2C3)cc1 (configuration not stated)	0.71
CCOC(=O)c1ccc(NC(=O)C2CC(=O)N(C)C(=Nc3ccc(F)cc3)S2)cc1 (configuration not stated)	-0.23
COC(=O)C1=C(C)N(C)C(C)=C(C(=O)OC)C1c1ccc(OCc2ccccc2)c(OC)c1	0.37
COc1ccc2nc3sc(C(=O)N(C)c4cc(C)ccc4C)cc3cc2c1	-0.17
N#Cc1c(NC(=O)C(C(F)(F)F)C(F)(F)F)sc2c1CCC2	0.73
Cc1ccc(NC(=O)c2ccc(N3CCN(c4ccccc4Cl)CC3)c([N+](=O)[O-])c2)cc1F	-1.15
CCC1CCCCN1CCNC(=O)C1CCN(S(=O)(=O)c2c(C)noc2C)CC1 (configuration not stated)	0.3
O=C(CN1C(=O)C2C3CC(C(Br)C3Br)C2C1=O)NC1CCCCC1 (configuration not stated)	1.11
COc1ccc(CNC(=O)CSc2nc3cc(Cl)ccc3s2)cc1	-0.35
COCCn1c(SCC(=O)Nc2ccccc2)nc2c1c(=O)[nH]c(=O)n2C	-0.74
CCOC(=O)c1[nH]c(C)c(C(=O)O)c1C	-0.2
Cc1cccc(C)c1Nc1nc2ccccc2nc1NS(=O)(=O)c1ccccc1	0.48
O=C(Nc1ccc(-c2nc3ncccc3o2)cc1)c1ccccc1	0.41
CCc1ccc(C2c3c(n[nH]c3C)CC(C)(O)C2C(C)=O)cc1 (configuration not stated)	0.99
COc1ccccc1C1CC(c2c(-c3ccccc3)c3cc(Cl)ccc3[nH]c2=O)=NN1C(=O)CN1CCCC1 (configuration not stated)	-0.06
O=C(O)C1CSC(c2ccccc2Cl)N1C(=O)c1ccc(Cl)cc1 (configuration not stated)	-0.02
O=C(Nc1ccc(Cl)cn1)C1c2ccccc2C(=O)N2CCc3ccccc3C12 (configuration not stated)	1.67
CC1=C(C(=O)OC(C)C)C(c2cn(-c3ccccc3)nc2-c2ccc(C)cc2)C(C(=O)OC(C)C)=C(C)N1	1.01
CCOc1ccc(C(C2=C(O)CC(C)(C)CC2=O)C2C(=O)CC(C)(C)CC2=O)cc1 (configuration not stated)	-0.02
CCN1C(=O)CSc2ccc(C(=O)NC(C)C)cc21	1.24
CCCCn1c(=NC(C)=O)c(C(=O)OCC)cc2c(=O)n3ccccc3nc21	0.1
CC1(C)CC(=O)C2=C(C1)Nc1nc(SCc3ccccc3Cl)[nH]c(=O)c1C2c1cccnc1 (configuration not stated)	-0.82
CC(=O)C1C(c2ccc(F)cc2)C(C#N)(C#N)C2c3ccccc3C=CN12 (configuration not stated)	-0.17
Cc1cc(SCC(=O)O)nc2c(C)cccc12	-0.17
CCC(C)NC(=O)CN1C(=O)CSc2ccc(S(=O)(=O)N3CCOCC3)cc21 (configuration not stated)	0.24
CCCOC(=O)C1=C(C)N(C)C(=O)NC1c1ccccc1I (configuration not stated)	-0.89
Cc1cc(C)n(C(=O)CNC(=O)c2ccccc2Cl)n1	-0.05
CS(=O)(=O)N1CCc2cc([N+](=O)[O-])ccc21	0.34
COc1ccc(C2C(C(=O)N3CCN(c4cccc(C)c4C)CC3)CCC(=O)N2c2cc(OC)c(OC)c(OC)c2)cc1 (configuration not stated)	-1.05
COc1ccc(C(=O)OCCNC(=O)c2cccnc2)cc1OC	0.47
O=C(CCCN1C(=O)c2cccnc2C1=O)Nc1ccc(OC(F)(F)F)cc1	0.14
CCOc1ccccc1NC(=O)C1c2ccccc2C(=O)N(CCOC)C1c1ccc(F)cc1 (configuration not stated)	-0.49
COc1ccc2nc3sc(C(=O)NCc4cccnc4)cc3cc2c1	0.07
Cn1c(=O)c2c(nc(NCc3ccc4c(c3)OCO4)n2Cc2ccc(Br)cc2)n(C)c1=O	0.65
Cc1ccc(-c2cc3ncc(C#N)c(-c4cccc(C)c4)n3n2)cc1	-1.99
CC(C)(C)NC(=O)Cn1c(=O)oc2cc(Cl)ccc21	2.1
O=C(CN1CCN(c2nc3ccccc3s2)CC1)Nc1ccc([N+](=O)[O-])cc1	0.84
Cc1cc(N)c2ccccc2n1	-0.58
CC(C)OC(=O)c1ccc(NC(=O)COc2ccccc2Cl)cc1	-0.61
O=[N+]([O-])c1ccc(N2CCN(S(=O)(=O)c3ccc(Cl)cc3)CC2)cc1NCCc1ccccc1	-1.45
N#Cc1ccc(-c2ccccn2)nc1SCC=Cc1ccccc1	-0.24

Continued; it opens with the two that closed the last part.
SMILES	Measles inh
O=[N+]([O-])c1ccc(N2CCN(S(=O)(=O)c3ccc(Cl)cc3)CC2)cc1NCCc1ccccc1	-1.45
N#Cc1ccc(-c2ccccn2)nc1SCC=Cc1ccccc1	-0.24
Cc1cc(C(=O)N2N=C(C(F)F)CC2(O)C(F)F)ccc1[N+](=O)[O-] (configuration not stated)	-0.74
Cc1ccc(-c2cc(-c3ccccc3)nc(SCC(=O)Nc3cc(C)on3)c2C#N)cc1	-1.01
O=C(c1c[nH]c2ccc(S(=O)(=O)Nc3ccccc3F)cc2c1=O)N1CCOCC1	-0.2
CCOC(=O)C1CCCN(C(=O)c2cc3cc4ccc(C)cc4nc3o2)C1 (configuration not stated)	-0.42
O=c1[nH]c(N2CCOCC2)cc2ccccc12	-0.23
CCCn1cc(SCC(=O)Nc2ccc(OC)cc2OC)c2ccccc21	1.07
O=C(CCCCCn1c(=O)[nH]c2ccccc2c1=O)NC1CCCCC1	-0.65
COCCCNC(=O)C1c2cc(OC)c(OC)cc2C(=O)N2CCc3ccccc3C12 (configuration not stated)	-0.09
Cc1ccc2nsnc2c1NC(=O)Cc1ccc(Cl)cc1	0.12
CC1CCCN(C(=O)c2n[nH]c(=O)c3ccccc23)C1 (configuration not stated)	-0.23
O=C(CCn1nc(-c2ccc(Cl)cc2)c2ccccc2c1=O)NCCN1CCOCC1	2.15
CC(=O)C1=C(O)C(=O)N(CCO)C1c1ccc(C(C)C)cc1 (configuration not stated)	-0.84
O=C1CC(Sc2ccccn2)C(=O)N1c1ccc(F)cc1 (configuration not stated)	-0.72

Screens as filed in PubChem.

Some of the compounds tested (hit frequency here may not be typical).
